Compound activity deposited in PubChem BioAssay by National Center for Advancing Translational Sciences (NCATS).
Cruzain noTriton = blocks cruzain activity in detergent-free assay | actives 2.3% (n = 200,000) | Potency, µM, for inactives: max response, negative = inhibition, most hits filed as inhibitors | purified cruzain, Z-FR-AMC fluorescence, no detergent | P25779; active = well fitted curve in the direction sought with a large enough effect; inconclusive = small, poorly fitted or top-dose-only effect, or another doubt; inactive = no such curve, though single readings can be large; an effect the other way counts as inactive or inconclusive;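 also: plate controls were enzyme without inhibitor for no effect and buffer without enzyme for full effect; nearly all actives have a fitted effect of over 40% in size; top concentration of the series not given in the record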
Target sequence (P25779 123-467 limits assumed): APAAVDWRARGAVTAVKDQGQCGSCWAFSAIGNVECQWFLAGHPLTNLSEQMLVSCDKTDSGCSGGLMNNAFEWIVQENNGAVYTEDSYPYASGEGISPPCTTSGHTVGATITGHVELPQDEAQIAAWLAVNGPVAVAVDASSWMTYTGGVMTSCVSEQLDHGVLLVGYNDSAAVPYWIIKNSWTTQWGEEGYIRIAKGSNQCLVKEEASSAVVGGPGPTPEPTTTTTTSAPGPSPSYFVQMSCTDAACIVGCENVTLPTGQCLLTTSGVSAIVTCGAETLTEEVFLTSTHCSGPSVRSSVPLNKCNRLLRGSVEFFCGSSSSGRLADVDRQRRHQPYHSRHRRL
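Purified cruzain at 1.5 nM, pre-incubated 15 min with compound at room temperature in 100 mM sodium acetate pH 5.5, 5 mM DTT, 0.00005% Triton X-100. Reaction started with 2 uM Z-FR-AMC; AMC fluorescence increase over 60 s gives rate.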
MARV entry inh = inhibitors of Marburg virus binding or cell entry; Potency, µM (series often up to 37.8 µM), for the others: at the highest dose activity change, negative = inhibition, actives largely listed as inhibitors; Marburg virus pseudotyped entry inhibition, cell reporter; control for the full effect not named in the record; about a third of the inactives were read at about 46 µM; actives 1.8% (n = 300,000); active = well fitted inhibition curve with a large enough effect; inconclusive = small, poorly fitted or top-dose-only effect, or effect the other way; inactive = flat fitted curve, though single readings scatter; tested in HEK293 cells; about a fifth of its hits are not listed in these tables; also: % is scaled to controls: 0 for no effect and ±100 for the full control effect; luciferase read-out
SARS PLP yeast = SARS-CoV PLP inhibition in yeast; actives 0.19% (n = 330,000); Potency, µM (doses to about 32.9 µM), for the others: top-dose activity, positive = growth rescue; S. cerevisiae expressing SARS-CoV PLpro, growth rescue; control for the full effect not named in the record; also: 0% is about no effect; nearly all actives have a fitted effect of over 55% in size; growth read by luminescence after 48 h
StopGo reporter = lowers the luciferase signal of an FMDV 2A StopGo reporter; human cells with a luciferase reporter of 2A StopGo recoding; control for the full effect not named in the record; Potency, µM (doses to about 57.9 µM), for the others: top-dose signal change, negative = less light; actives 1.2% (n = 410,000); AID 1159524; active = well fitted falling curve with a large enough effect; inconclusive = small, poorly fitted or top-dose-only effect; inactive = no such curve, though single readings can be large or run the other way; tested in HEK293T cells; also: % is scaled to controls: 0 for no effect and ±100 for the full control effect; nearly all actives have a fitted effect of over 45% in size; luciferase light after 4 h
LASV entry inh = Lassa virus entry inhibition. Lassa virus pseudotype entry inhibition, cell reporter; control for the full effect not named in the record. Potency, µM (series often up to 37.9 µM), without a hit: at the highest dose activity change, negative = inhibition, hits mostly inhibitors. actives 1.2% (n = 300,000); active means well fitted inhibition curve with a large enough effect; inconclusive means small, poorly fitted or top-dose-only effect, or effect the other way; inactive means flat fitted curve, though single readings scatter; tested in HEK293 cells; also: % is scaled to controls: 0 for no effect and ±100 for the full control effect; nearly all actives have a fitted effect of over 50% in size; luciferase read-out
RE007 growth inh = less growth of the S. pombe RE007 Vpr strain | S. pombe RE007 Vpr strain, BacTiter-Glo ATP luminescence, 24 h; control for the full effect not named in the record | Potency, µM (highest dose often 92.2 µM), for the others: at the top dose activity change, negative = less growth | actives 0.21% (n = 360,000); active = well fitted falling curve with a large enough effect; inconclusive = small, poorly fitted or top-dose-only effect; inactive = no such curve, though single readings can be large or run the other way;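 also: % is scaled to controls: 0 for no effect and ±100 for the full control effect; nearly all actives have a fitted effect of over 50% in size; the assay follows cell death caused by Vpr and the record does not say whether a fall means rescue or toxicity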
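Fission yeast strain RE007, carrying one chromosomally integrated HIV-1 vpr copy, was seeded at OD 0.01 in PMG+AL medium with 23 nL pinned compound. After 24 h at 30 °C and 99% humidity, viability was read by BacTiter-Glo luminescence.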
Cruzain inh Det = inhibitors of Trypanosoma cruzi cruzain with detergent. actives 0.43% (n = 200,000). Potency, µM, without a hit: max response, negative = inhibition, most hits filed as inhibitors. P25779. purified cruzain, Z-FR-AMC fluorescence, 0.01% Triton; active = well fitted curve in the direction sought with a large enough effect; inconclusive = small, poorly fitted or top-dose-only effect, or another doubt; inactive = no such curve, though single readings can be large; an effect the other way counts as inactive or inconclusive;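 also: plate controls were neutral wells for no effect and buffer without enzyme for full effect; nearly all actives have a fitted effect of over 40% in size; top concentration of the series not given in the record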
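In this qHTS format, compounds are incubated with 1.5 nM cruzain for 15 min at room temperature before 2 uM Z-FR-AMC is added. Release of AMC is followed at 360/450 nm, and progress is taken as the 60 s fluorescence difference.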
NS1 function inh = influenza NS1 inhibition; S. cerevisiae slowed by influenza A NS1, growth recovery by OD600; Potency, µM (titrated, usually from 46.1 µM), for inactives: top-dose activity, positive = more growth; actives 0.4% (n = 270,000); also: actives are rising curves; nearly all actives have a fitted effect of over 50% in size
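Read-out: OD600 growth recovery of NS1-expressing budding yeast. Cells grown overnight at 30C in -URA glucose medium, washed, resuspended and diluted 1:100 in 2% galactose assay medium, pH 6.0. Same strain lacking NS1 served as positive control.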
The depositor's hits bear a star; u = inconclusive; x = no result given; & = joins results of further samples; [ ] = remark or other dose. Unless noted, calls follow the shape of the dose curve; as a rule, active means well fitted rising curve with a large enough effect; inconclusive means small, poorly fitted or top-dose-only effect; inactive means no such curve, though single readings can be large or run the other way. Potency is read from the fitted curve at half-maximal effect.

SMILES	Cruzain noTriton	MARV entry inh	SARS PLP yeast	StopGo reporter	LASV entry inh	RE007 growth inh	Cruzain inh Det	NS1 function inh
COc1ccc(OCc2cc(C(=O)NCCc3ccccc3)no2)c(Cl)c1	x	x	2%	42%[activator]	x	3%	x	-11%
O=C(CN1CCN(c2ccc(O)cc2)CC1)Nc1cc([N+](=O)[O-])ccc1Cl	25µM*	u	21%	u	4%	-14%	-24%	17%
CCN(CC)S(=O)(=O)c1ccc(OC)c(N)c1	x	1%[46.1 µM]	5%	-17%	-1%[46.1 µM]	13%	x	x
CCCN1C(=O)c2[nH]nc(-c3ccc(F)cc3)c2C1c1ccc(O)c(OCC)c1 (stereo unspecified)	10%	u	x	-25%	-12%[46.1 µM]	x	-5.8%	x
Cc1nc2sccn2c(=O)c1CCN1CCC(=C(c2ccc(F)cc2)c2ccc(F)cc2)CC1	-2%&12%&-4%	20µM*	-2%	-18%&0%	12µM*	-17%[18.4 µM]	0.1%&-7.7%&-3.7%	-45%&-53%
Cc1cc(C)n(-c2nc3nonc3nc2Nc2cccc(C)c2C)n1	u	6%	3%	-21%	x	x	0.6%	0%
O=C(Cn1ncn2c(cc3ccccc32)c1=O)NCc1ccco1	3%	7%	-1%	x	-11%	1%	-5.2%	3%
Cc1cc(C(=O)N/N=C/c2cn(C)nc2C)c2ccccc2n1	x	x	u	-10%	x	20%	x	-3%
O=C(CNCc1cccc(Cl)c1)N1CCc2ccccc2C1	x	x	1%	37%[activator]	x	-11%	x	-1%
Clc1ccc(-c2nc3ccccc3[nH]2)cn1	x	16%[46.1 µM]	-3%	-8%	-1%	-17%	x	-34%
Cc1ccc2nc(C)n(-c3ccc(F)cc3)c(=O)c2c1	x	u	-4%	-16%	-12%	10%	x	1%
COc1cccc(CN2CC(C(=O)NCCc3ccccc3C(F)(F)F)CCC2=O)c1 (stereo unspecified)	x	1%[46.1 µM]	14%	2%	11%[46.1 µM]	-1%	x	8%
CCC1(C(=O)OC)NC(c2ccco2)C2C(=O)N(c3ccc(F)cc3)C(=O)C21 (stereo unspecified)	x	x	-2%	-16%	x	18%	x	-2%
Cc1ccc(C)c(NC(=O)CSc2ncnc3nc[nH]c23)c1	7%	7%	-1%	6%	11%	-2%	0.7%	u
COC(=O)c1cn(NC(=O)Cn2nc([N+](=O)[O-])c(Br)c2C)c(=O)c2ccccc12	x	1%	-2%	-13%	7%	-5%	x	x
CC(=O)Nc1ccc(NC(=O)c2cccc(Oc3ccccc3)c2)cc1	x	u	23%	2%	0%	-11%	x	2%
COc1ccc(CNC(=O)Cn2cc(C(F)(F)F)ccc2=O)cc1	5%	-12%	-4%	-10%	2%	13%	0.0%	8%
Cc1ccc(NC(=O)CCCCCN2C(=O)[C@@H]3Cc4ccccc4CN3C2=O)c(Cl)c1	x	x	-3%	u	x	13%	x	-34%
COc1cccc(NC2C=CS(=O)(=O)C2)c1 (stereo unspecified)	-4%	u	5%	-20%	1%	-8%	-1.8%	4%
Cc1ccc(-c2c(C(=O)N/N=C/c3ccc4c(c3)OCO4)nnn2-c2nonc2N)cc1	x	x	-5%	-19%	x	1%	x	18%
Cc1cccc2cc(CN(Cc3ccco3)C(c3nnnn3CCc3ccccc3)C(C)C)c(=O)[nH]c12 (stereo unspecified)	u	u	-3%	-22%	-29%	-2%	-7.4%	13%
COC(=O)c1nnn(-c2nonc2N)c1CSc1nc2ccccc2s1	-29%	-12%	0%	u	2%	-27%	-2.0%	-12%
COc1ccc(-c2nsc3c(N4CCN(S(=O)(=O)c5ccccc5F)CC4)ncnc23)cc1	-22%	9%	-1%	x	10%	2%	-6.1%	8%
c1ccc(CN2CCN(c3nc(-c4ccccn4)nc4ccccc34)CC2)cc1	22%	10%&10%[46.1 µM]	6%	15%	13%	14%	-3.6%	-56%
COc1ccc(C2C(C#N)=C(N)Oc3cc(O)ccc32)cc1Cl (stereo unspecified)	x	x	1%	-25%	x	4%	x	11%
SMILES	Cruzain noTriton	MARV entry inh	SARS PLP yeast	StopGo reporter	LASV entry inh	RE007 growth inh	Cruzain inh Det	NS1 function inh
COc1ccc(CNC(=O)c2ccc3c(c2)CCN3S(=O)(=O)c2ccc(Cl)cc2)cc1	u	u	x	-27%	-30%[46.1 µM]	x	-1.0%	x
COc1ccc2c(CNCc3cccs3)c(C(=O)O)n(Cc3ccccc3C)c2c1	-8%	x	x	3%	5%[46.1 µM]	x	-1.8%	x
CC1CC(C)CN(CC(O)COCc2ccccc2)C1 (stereo unspecified)	x	2%[46.1 µM]	-6%	4%	-16%[46.1 µM]	-14%	x	-13%
O=C(O)CCC(=O)Nc1ccc(NC(=O)c2ccc(Cl)cc2Cl)c(Cl)c1	x	u	1%	-17%	-15%	8%	x	6%
COc1ccc(NC2=C(NC(C)=O)C(=O)c3ccccc3C2=O)cc1	x	u	3%	0%	u	-14%	x	0%
CC1CCCN(Cc2nc3c(c(=O)n(C)c(=O)n3C)n2CC(N)=O)C1 (stereo unspecified)	3%	5%	10%	-1%	9%	3%	1.3%	1%
CC(=O)c1ccc(N2CCN(C(=O)COc3ccc(F)cc3)CC2)c(F)c1	3%	-12%	-2%	u	-20%	6%	-0.3%	-29%
Cn1cccc1/C=C1/C(=O)NC(=O)N(Cc2ccccc2)C1=O	-13%	-41%	12%	u	-27%	-1%	-4.5%	22%
COCCN(Cc1ccco1)C(=O)Cn1ncc2c(=O)oc3ccccc3c21	x	x	7%	-7%	x	6%	x	4%
CCOc1cc(/C=C2/C(=O)N(c3ccccc3)N=C2C)ccc1OC(=O)c1ccco1	u	8%	1%	-12%	11%	-5%	-6.4%	-5%
CCCCN(C)c1nc(-c2ccco2)c2c(c1C#N)CC(C)(C)OC2	20%	5%	-6%	-3%	x	-13%	-13%	-46%
COc1cccc(OCc2nc3ccccc3n2Cc2ccccc2)c1	0%	u	x	-6%	u	x	-10%	x
O=C(Cc1ccccc1)N/N=C/c1cccs1	2%	u	-5%	31%[activator]	8%	-7%	4.3%	4%
O=C(NC(=O)N1CCCCC1)c1ccccc1	x	x	0%	-22%	x	-16%	x	7%
O=C(COc1ccc(Cl)cc1)N(Cc1ccccc1)c1nc(-c2ccccc2)cs1	10µM*	u	1%	18%	-23%	1%	4.1%	5%
CCOc1cc(/C=N/NC(=O)Cn2nc([N+](=O)[O-])cc2C)cc(Br)c1OCc1ccccc1F	-7%	u	1%	0%	-12%	20%	0.2%	5%
Cc1ccc(-c2ccc(SCC(=O)NC3CCCC3)nn2)cc1	x	-3%	2%	7%	-18%	-3%	x	0%
COc1ccccc1-c1c(-c2ccc(O)cc2O)n[nH]c1C(F)(F)F	x	x	1%	16µM*	x	2%	x	5%
CC(C)C[C@@H](CN=[N+]=[N-])N1CCN(C)CCC1=O	x	x	-3%	-8%	x	9%	x	7%
O=C(O)/C=C/C(=O)c1ccc2c(c1)NC(=O)CO2	x	u	0%	-14%	1%	-4%	x	x
O=C(Nc1ccc(O)cc1)C1CCCO1 (stereo unspecified)	-3%	3%	0%	-1%	-21%	1%	2.0%	-7%
COc1ccccc1CNC(=O)C(CCSC)NC(=O)C1CCC(C)CC1 (stereo unspecified)	2%	-19%	0%	16%	-10%	-7%	-1.1%	-9%
COc1ccc(CCN2C(=NC(=O)C(C)C)SC3CS(=O)(=O)CC32)cc1 (stereo unspecified)	x	u	-1%	7%	-16%[46.1 µM]	-18%	x	-8%
C=CCN(c1ccc(C(=O)N(CC)CC)cc1)S(C)(=O)=O	6%	11%[46.1 µM]	-8%	-20%	u	-2%	-1.8%	5%
Cn1c(=O)c2[nH]c(-c3ccc(S(=O)(=O)O)cc3)nc2n(C)c1=O	u	u	x	-25%&-9%	u	3%[18.4 µM]	-21%	-3%
SMILES	Cruzain noTriton	MARV entry inh	SARS PLP yeast	StopGo reporter	LASV entry inh	RE007 growth inh	Cruzain inh Det	NS1 function inh
COc1ccc(CNC(=O)C(C)Sc2nc3ccccc3c(=O)n2CC2CCCO2)cc1 (stereo unspecified)	x	-4%	-2%	-6%	2%	4%	x	x
O=C(CCC(=O)c1ccc(Cl)cc1)OCc1nc2ccsc2c(=O)[nH]1	x	-2%[46.1 µM]	14%	-8%	8%	-1%	x	x
O=C(CSc1nnc(-c2ccc(Cl)cc2)n1Cc1ccco1)c1cccs1	-22%	u	-2%	x	-26%	7%	-2.9%	-1%
Cc1ccc(C)c(N2CCN(C(=O)CN3C(=O)COc4ccc(S(=O)(=O)N5CCC(C)CC5)cc43)CC2)c1	-8%	1%[46.1 µM]	x	-17%	4%[46.1 µM]	x	-1.9%	x
CN1CCN(c2ccccc2NC(=O)c2cccs2)CC1	x	u	2%	-19%	28%[46.1 µM]	-6%	x	0%
N#CC1(c2nc3ccccc3[nH]2)CC1c1ccc2c(c1)OCO2 (stereo unspecified)	-3%	-21%	-9%	-8%	-21%	3%	-2.9%	-66%
CCn1c(=O)c(C(=O)Nc2cc(OC)c(OC)c(OC)c2)nc2ccccc21	-6%	-18%[46.1 µM]	x	54%[activator]	2%[46.1 µM]	x	-3.2%	x
Cc1cccnc1NC(N)=S	x	u	3%	-9%	4%[46.1 µM]	-6%	x	9%
O=C(COC(=O)C1CCC1)Nc1cccc(Cl)c1	x	-7%[46.1 µM]	-2%	-9%	u	-3%	x	x
CC(OC(=O)C1CC1C)C(=O)Nc1ccc(Cl)cn1 (stereo unspecified)	x	u	-2%	-16%	6%	-3%	x	x
CN1CCN(C(=O)c2ccc(C(F)(F)F)cc2)CC1	x	x	4%	1%	x	-1%	x	6%
COc1ccc(N(CC(=O)Nc2cccc(C)c2C)S(=O)(=O)c2c(C)[nH]c(=O)[nH]c2=O)cc1	x	-3%[46.1 µM]	-3%	5%	2%	6%	x	-5%
COc1ccc(CNc2ncnc3onc(C)c23)cc1	-13%	x	x	-25%	13%[46.1 µM]	x	-3.8%	x
O=C(N=Nc1c(O)[nH]c2ccccc12)c1cccs1	x	u	-6%	-6%	u	-12%	x	x
COc1cc(NC(=O)c2nn(-c3ccc(F)cc3)c(=O)n(C)c2=O)cc(OC)c1OC	-5%	x	x	-2%	-1%[46.1 µM]	x	-1.2%	x
CCOc1nc2cnccc2n(CC(=O)Nc2ccccc2F)c1=O	x	x	1%	-10%	x	1%	x	12%
